# HTT prom inh = HTT promoter inhibition; HEK293 HTT promoter firefly luciferase reporter (activity 0% = vehicle and -100% = no light), 24 h; Potency, µM (top dose mostly 57.5 µM), for inactives: top-dose activity change, negative = inhibition, actives largely listed as inhibitors; 0.93% of 48,000 active; AID 1508623; active = well fitted inhibition curve with a large enough effect; inconclusive = small, poorly fitted or top-dose-only effect; inactive = no such curve, though single readings can be large or run the other way; also: nearly all actives have a fitted effect of over 50% in size
#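 HEK293 cells carrying firefly luciferase reporters were seeded at 2,500 per well in Opti-MEM and cultured for 24 h. They were then treated with compounds at up to 57.5 uM final for 24 h at 37 degrees C before Dual-Glo luminescence readout.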
# PMP22 txn prim = PMP22 gene transcription modulation; 2% of 43,000 active; S16 Pmp22-F2sN Schwann cells (luciferase reporters placed in the Pmp22 gene), FLuc/NLuc coincidence luminescence, 24 h; Potency, µM (highest dose often 57.5 µM), without a hit: at the top dose activity change, negative = inhibition, most hits filed as inhibitors; active = clear falling dose curves in both reporters; inconclusive = both reporters move, but less clearly or upward; inactive = either reporter flat; the % is the NLuc reporter signal; also: % is scaled to controls: 0 for no effect and ±100 for the full control effect; some results filed as inactive show a strong effect at the top dose
#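 qHTS, 1536-well. Cells seeded, compounds added by pin tool, 24 h 37C. Nano-Glo reagent 1 (lysis/FLuc), 10 min RT, read; Stop&Glo, 10 min RT, read NLuc.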
# * = called active by the depositor; ? = inconclusive; nt = not tested or not shown; [ ] = dose if it differs, or a comment. Potency is read from the fitted curve at half-maximal effect.
SMILES,HTT prom inh,PMP22 txn prim
COc1ccc(-c2noc(CN3CCN(c4cccc(Cl)c4)CC3)n2)cc1,-15%,-2%
Cc1cccc(Nc2sc(C(=O)c3ccc(Cl)cc3)c(N)c2C(N)=O)c1,-17%,-35%
Cc1nc(N2CCCC2)ncc1C(=O)Nc1ccc(OC(F)(F)F)cc1,?,-1%
Cc1ccc(OC(=O)c2cc(-c3ccc4c(c3)OCCO4)on2)cc1C,0%,5%
CC1(C)CC(=O)c2cc(-c3nc(-c4ccc(Cl)cc4)cs3)c(=O)n(-c3ccc(F)cc3)c2C1,-13%,-14%
COc1ccc(N2CCN(c3ncnc4onc(C)c34)CC2)cc1,?,?
CC(C)(C)c1ccc(C(=O)Nc2c(C(=O)c3ccc(F)cc3)oc3ccccc23)cc1,0%,-1%
CC(=O)c1cccc(NS(=O)(=O)c2c(C)nc3sc(C)cn3c2=O)c1,?,?
O=C(Cn1c(=O)n(Cc2cccs2)c(=O)c2cccnc21)Nc1ccc(F)cc1,-29%,-48%
O=C(COCc1cc(-c2cccs2)on1)N1CCN(c2ccccc2)CC1,-24%,-11%
Cc1ccc(Cl)cc1Nc1nn2c(=O)c3ccc(C(=O)NC(C)c4ccccc4)cc3nc2s1 (stereo not drawn),?,7.6µM*
Cc1ccc(NC(=O)C(=O)NCCc2sc(-c3ccc(Cl)cc3)nc2C)cc1C,-6%,?
Cc1ccc(-c2nc3c(C)cccn3c2Nc2ccccc2C)s1,-1%,-12%
Cc1cccc(Oc2nc3c(c(=O)n(C)c(=O)n3C)n2C)c1C,-5%[11.5 µM],8%
Cc1cccc(-n2cc(-c3ccccc3)c3c(NC(C)C)ncnc32)c1,-22%,-19%
CCOc1ccccc1NC(=O)Nc1nnc(N2CCCC(C)C2)s1 (stereo not drawn),?,?
O=C(Nc1cc(F)ccc1F)C1CCN(C(=O)c2cnn(-c3ccccc3)c2-n2cccc2)CC1,-28%,-18%
Cc1ccc(C(C)C)c(OCC(=O)Nc2c(C(=O)c3ccc(F)cc3)oc3ccccc23)c1,14%,-3%
CCCOc1ccc(-c2nonc2NC(=O)c2ccco2)cc1OCCC,-30%,-8%
Cc1nnc(SCc2cc(=O)c3ccccc3[nH]2)s1,-13%,11%
Cc1ccc(C)c(N2CCN(C(=O)NCc3noc4ccc(C)cc34)CC2)c1,?,?
Cc1nc(-c2cccc(F)c2)sc1CCNC(=O)Cc1ccc(F)cc1,-44%,7%
Cc1ccc(Cl)cc1N(C)C(=O)Cn1nc(Cc2cccnc2)c2ccccc2c1=O,-22%,?
Cc1cc(C)cc(OCC(=O)N(Cc2ccc(C)o2)C2CCS(=O)(=O)C2)c1 (stereo not drawn),-14%,-6%
CC(COc1ccccc1)NN (stereo not drawn),-3%,nt
Cc1ccc2nc(N(Cc3cccnc3)C(=O)c3cccs3)sc2c1,?,-15%
Cc1cccc(N2CCN(C(=O)c3ccc(NC(=O)c4nsc5ccccc45)cc3)CC2C)c1 (stereo not drawn),?,?
O=c1[nH]c2ccc(NCc3ccc(-c4ccccc4)o3)cc2[nH]1,?,-4%
COC(=O)c1c(NC(=O)CCCOc2cccc(C)c2)sc2c1CCC2,-15%,-8%
COc1ccc(N2CCN(c3ccc(-c4nc(-c5ccccc5)no4)cc3[N+](=O)[O-])CC2)cc1,?,-17%
O=C(NC1CCCC1)c1ccc2c(=O)n(Cc3ccccc3)c(SCc3ccc([N+](=O)[O-])cc3)nc2c1,3%,-7%
Cc1ccc(Nc2cc(C(=O)NCCc3ccccc3)c3ccccc3n2)c(C)c1,0%,-48%
CC(=O)Nc1ccc(S(=O)(=O)NCc2ccc3c(c2)CCN3C(C)=O)cc1,-5%,3%
CC(C)Oc1ccccc1-c1nc(SCC(=O)c2ccc(F)cc2)n[nH]1,-38%,-1%
COc1ccc(C)cc1NC(=O)C(NS(=O)(=O)c1cccc2nsnc12)c1ccccc1 (stereo not drawn),-21%,5%
CCCCN(C)C(=O)CSc1nc2ccccc2nc1Cc1ccc(C)cc1,-7%,?
O=C(Cn1c(SCc2cccc(F)c2)nc2ccncc21)Nc1ccc(Cl)cc1F,-19%,-66%
Cc1nnc2c(N3CCN(c4ccc(F)cc4)CC3)nc3ccc(C(=O)c4ccccc4)cc3n12,7%,-2%
Cc1ccccc1CNC(=O)Nc1ccc2c(c1)N(C)C(=O)c1ccccc1S2,?,?
COc1cc(C2CC(=O)c3c([nH]c(C(=O)OC4CCCC4)c3C)C2)cc(OC)c1OC (stereo not drawn),4.5µM*,?
CCc1ccc(NC(=O)Cn2c(=O)n(Cc3ccccc3)c(=O)c3oc4ccccc4c32)cc1,-2%,-1%
COc1ccc(-c2nc(CCNC(=O)c3cccs3)cs2)cc1,?,-55%
Cc1ccc(C)c(N2CCN(CCCNC(=O)c3ccc4nc(C(C)C)oc4c3)CC2)c1,?,11µM*
CCCC(=O)N(c1ccc2oc(C)c(C(C)=O)c2c1)S(=O)(=O)c1ccc(C)cc1,-24%,?
Cc1cc(SCC(=O)NCc2ccccc2)nc(=O)[nH]1,-9%,-5%
CN(C)CCc1c[nH]c2ccc(Cn3cncn3)cc12,-8%,nt
Cc1cc(F)ccc1NC(=O)C1CCN(S(=O)(=O)c2ccc3c(c2)CCCC(=O)N3)CC1,?,-13%
CN1CC(=O)N2C(Cc3c([nH]c4ccccc34)[C@H]2c2ccc3c(c2)OCO3)C1=O (stereo partly drawn),-16%,nt
COc1ccccc1N1CCN(C(=O)CSc2nc(C)cc(=O)[nH]2)CC1,-14%,0%
Cc1cc(C)cc(NC(=O)C(=O)NCCCN2CCOCC2)c1,-2%,-2%
# Continuation.
SMILES,HTT prom inh,PMP22 txn prim
O=C(CCSCc1ccccc1F)N1CCN(c2ccc(F)cc2)CC1,-7%,7%
O=C(COc1ccc(Cl)cc1)Nc1ccccc1OCc1cc(=O)n2ccccc2n1,-2%,-9%
Cc1ccc(NC(=O)NCc2ccc3c(c2)CCN3C(=O)c2ccccc2)c(Cl)c1,-26%,5%
CC(=O)Nc1nonc1-c1nnc(SCC(=O)Nc2ccc(C)cc2)n1-c1ccccc1,-17%,5%
COc1ccc(C2=NN(CC(=O)NCCc3ccc(OC)c(OC)c3)C(=O)CC2)cc1,1%,?
CCCN(C(=O)c1coc(=O)c2ccccc12)c1ccccc1C,-23%,-35%
CCOC(=O)c1c(C)oc2ncnc(Nc3ccc(OC)c(OC)c3)c12,-9%,-18%
CCc1cccc(NC(=O)c2cc3c(=O)oc4ccc(C)cc4c3s2)c1,-5%,-4%
Cc1nc(-c2ccc(C)c(N3CCN(C(=O)Nc4cccc(Cl)c4C)CC3)c2)no1,?,-17%
COC(=O)c1ccccc1NC(=O)Cn1c(=O)n(-c2ccc(Cl)cc2)c(=O)c2c(C)c(C)sc21,-3%,-29%

# Part of the list above in order of number of heavy atoms, lowest first.
SMILES,HTT prom inh,PMP22 txn prim
CCCN(C(=O)c1coc(=O)c2ccccc12)c1ccccc1C,-23%,-35%
Cc1nc(-c2ccc(C)c(N3CCN(C(=O)Nc4cccc(Cl)c4C)CC3)c2)no1,?,-17%
O=C(COc1ccc(Cl)cc1)Nc1ccccc1OCc1cc(=O)n2ccccc2n1,-2%,-9%

# The list continues:
SMILES,HTT prom inh,PMP22 txn prim
O=C(CSCc1ccccc1Cl)N1CCN(c2ccc(F)cc2)CC1,-8%,-43%
CC(C)CCOc1ccc(C(=O)NCC2OCCc3ccccc32)cc1 (stereo not drawn),-3%,-4%
CCOC(=O)CSc1nc2ccc(NC(=O)c3ccc(Cl)cc3)cc2s1,12%,-5%
Cc1ccccc1NC(=O)CSc1nc2c(oc3ccccc32)c(=O)n1Cc1ccco1,-11%,-23%
COc1ccc(N(C(=O)c2cccc(C)c2)S(=O)(=O)c2ccc3c(c2)n(C)c(=O)n3C)cc1,1%,-14%
Nc1ccccc1N,33%[activator][116 µM],nt
Cc1cccc(C)c1OCC(=O)NCC1(N(C)C)CCCCC1,-26%,-11%
CCOc1ccccc1NC(=O)N1CC(C)Oc2ccc(Cl)cc21 (stereo not drawn),-24%,?
CCCOc1ccc(C2c3c(oc4ccccc4c3=O)C(=O)N2c2nnc(C(C)C)s2)cc1 (stereo not drawn),-15%[11.5 µM],-7%
CCOc1ccc(CNC(=O)c2ccc3c(c2)c(C)c(C)n3Cc2ccc(Cl)cc2)cc1,-27%,-14%
Cc1ccc(-n2ncc3c(NCCCn4ccnc4)ncnc32)cc1,-22%,5%
COc1cccc(NC(=O)Cn2c(=O)n(-c3ccccc3)c(=O)c3c2c2cc(OC)ccc2n3C)c1,-19%,-2%
COc1cccc(-n2ccnc2SCC(=O)Nc2ccc(Cl)c(Cl)c2)c1,?,-14%
Cc1cc(C)cc(OCC(=O)NCC(c2ccc(Cl)cc2)N2CCCCC2)c1 (stereo not drawn),2%,-27%
Cc1ccccc1OCCSc1nnc(-c2cccs2)o1,?,3%
CCc1ccc2oc(C(=O)Nc3ccccc3C(=O)OC)cc(=O)c2c1,-13%[11.5 µM],22%
COc1cccc(-n2c(SCC(N)=O)nc3c(oc4ccccc43)c2=O)c1,-21%,10%
CC1CCc2c(sc(NC(=O)c3cc(-c4ccc(F)cc4)on3)c2C(N)=O)C1 (stereo not drawn),0%,2%
COc1ccc2c(c1)NC(c1ccc(Cl)cc1)=NC(c1cccs1)=N2,-26%,-13%
CSc1ccc(-c2nc3ncccn3c2Nc2ccc(C)c(C)c2)cc1,?,-7%
Cc1ccc(S(=O)(=O)C(CNC(=O)c2c(F)cccc2F)c2ccco2)cc1 (stereo not drawn),-13%,-11%
CN1C(=O)C2(c3ccccc31)N(c1ccc(F)c(Cl)c1)C(=O)CS2(=O)=O (stereo not drawn),-9%,4%
CCOC(=O)Cc1c(C)nc2c(-c3ccc(OC)c(OC)c3)c(C)nn2c1C,-14%,14µM*
CCOC(=O)CSc1nc2ccccc2c(=O)n1-c1ccc(C(=O)NCCOC)cc1,7%,?
CCOc1ccc(CCNS(=O)(=O)c2c(C)nc3scc(C)n3c2=O)cc1OCC,-10%,?
CC(C)CCNC(=O)CCCN1C(=O)c2ccccc2Sc2ncccc21,-17%,11%
CC1CCCN(S(=O)(=O)c2cc3c(cc2Cl)NC(=O)CO3)C1 (stereo not drawn),?,-11%
CCOC(=O)CSc1nnc2n(-c3ccccc3)c(=O)c3c4c(sc3n12)CC(C(C)(C)C)CC4 (stereo not drawn),?,?
Cc1ccc(C)c(N2CCN(Cc3nnc(-c4ccc5c(c4)OCO5)o3)CC2)c1,-21%,?
CC(C)(C)OC(=O)N1CCC(c2c(C(=O)Nc3ccc4c(c3)OCO4)cnn2-c2ccccc2)CC1,-5%,-2%
Cc1ccc2occ(CC(=O)N3CCN(c4cccc(Cl)c4)CC3)c2c1,?,?
CN(C(=O)c1c2c(nc3ccccc13)C(=O)N(C1CCCCC1)C2)c1ccc(F)cc1,-21%,?
COc1ccc(-c2ccc(NS(=O)(=O)c3cccc(Cl)c3)cc2)nn1,?,?
COc1ccccc1-c1nn2c(=O)cc(CN3CCN(S(=O)(=O)c4ccc(C)cc4)CC3)nc2s1,-9%,36%
Cc1ccc(Cl)cc1NC(=O)c1oc2ccc(S(=O)(=O)N3CCCCCC3)cc2c1C,-10%,?
Cc1ccc(Nc2nc3c(S(=O)(=O)c4ccccc4)nnn3c3ccc(Cl)cc23)c(C)c1,-24%,-5%
Cc1ccc(-c2cn3nc(N4CCC(C(=O)Nc5ccccc5C)CC4)sc3n2)cc1,17%,3%
CCCOc1cccc(C2c3c(oc4cc(C)c(C)cc4c3=O)C(=O)N2CCCN2CCOCC2)c1 (stereo not drawn),-17%,?
COc1cc(OC)c(N(C)C(=O)c2c(C)oc3ncn(CC(C)C)c(=O)c23)cc1Cl,0%,?
Cc1ccc(C)c(Cn2c(=O)n(CCCC(=O)NCc3ccc4c(c3)OCO4)c(=O)c3sccc32)c1,-30%,?

# Shown with tabs: part of the list above
SMILES	HTT prom inh	PMP22 txn prim
COc1ccccc1-c1nn2c(=O)cc(CN3CCN(S(=O)(=O)c4ccc(C)cc4)CC3)nc2s1	-9%	36%
CN(C(=O)c1c2c(nc3ccccc13)C(=O)N(C1CCCCC1)C2)c1ccc(F)cc1	-21%	?
Cc1ccc(Cl)cc1NC(=O)c1oc2ccc(S(=O)(=O)N3CCCCCC3)cc2c1C	-10%	?
COc1ccc(-c2ccc(NS(=O)(=O)c3cccc(Cl)c3)cc2)nn1	?	?
CCCOc1cccc(C2c3c(oc4cc(C)c(C)cc4c3=O)C(=O)N2CCCN2CCOCC2)c1 (stereo not drawn)	-17%	?

# Continuation.
SMILES,HTT prom inh,PMP22 txn prim
CCCCNC(=O)C1CCN(c2nc3ccc(C)cc3[nH]2)CC1,12%,6%
CC1CCCN(Cc2c(O)ccc3c(=O)c(-c4ccccc4Cl)c(C(F)(F)F)oc23)C1 (stereo not drawn),-8%,41%
CC1=C(C(=O)Nc2ccccc2)C(c2ccc(C)cc2)n2nc(SCc3ccccc3C)nc2N1 (stereo not drawn),8%,-7%
COc1cc2nc(SCC(=O)Nc3ccc(F)cc3)n3nc(CCn4c(C)nc5ccccc54)nc3c2cc1OC,1%,-18%
Cn1nccc1C(=O)NCc1ccc2c(c1)CCN2C(=O)c1ccc(F)cc1,?,?
CC1CCC(Nc2nc3c(-c4cccc(C(F)(F)F)c4)nnn3c3ccccc23)CC1 (stereo not drawn),-14%,?
COc1ccc(NC(=O)c2c(NCc3ccc(N(C)C)cc3)sc3c2CCC3)cc1,-2%,-47%
